Screening data (PubChem)
CSC inhib: cancer stem cell viability inhibitors, primary screen, luminescence; cancer stem cell-like cells viability; inhibition, % at 7.5 µM; 1.1% of 300,000 active; AID 2717, 2010;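 active means mean at 75% or more and at least half the replicates too; inconclusive means mean and replicates disagree; tested in HMLE shEcad cells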;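 further: 0% = median of negative and 100% = median of positive control wells; the first replicate is given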
Env fusion inh: inhibitors of HIV-1 Env-driven cell-cell fusion, primary screen, HeLa-JRFL effector, CEM21 target cells, luciferase. inhibition, % at 12.3 µM. 1.1% of 360,000 active;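 active means mean replicate inhibition score of at least 50 and every replicate individually at or above 50; inconclusive means only one of the two criteria met; inactive means mean below 50 and not all replicates reaching 50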;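 further: 0% = plate neutral controls and 100% = maraviroc near 300 nM; one replicate is shown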
UUG fidelity: modulators of yeast start codon fidelity, primary screen, whole organism, S. cerevisiae, single point, plate reader; 0.13% of 350,000 active; activity score, % at 18.7 µM; S. cerevisiae UUG-firefly luciferase reporter, luminescence/redox ratio;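 active means replicate mean at a twofold rise or more, about +100% in these data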;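 further: firefly luciferase made from a UUG start codon reports start codon fidelity; reporter light over untreated wells divided by growth signal over untreated wells; some hits fall short of that in this replicate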
eIF4H FP inh: human eIF4H binding inhibitors, primary screen, translation initiation inhibitor project, biochemical, uHTS, fluorescence polarization; eIF4H fluorescence polarization binding assay; inhibition, % at 35 µM; 0.94% of 290,000 active; Eukaryotic translation initiation factor 4H (Homo sapiens), Q15056;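 active means 50% or more with normal probe brightness, or confirmed in later tests; inconclusive means above 50% with abnormal brightness, or retests that disagree; inactive means below 50% or failed in later tests; about a fifth of its hits are not listed in these tables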;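 further: calls also rest on retests at 20 µM and on dose response follow-up; 0% = protein and probe with vehicle and 100% = probe without protein; strong numbers were not always called active; many hits fall short of the cut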
Rce1 inhib: yeast Rce1p protease inhibitors, primary screen, biochemical, fluorescence, cell-free homogeneous; CAAX prenyl protease 2 (Saccharomyces cerevisiae (strain ATCC 204508 / S288c)), Q03530; AID 2563, 2010; calls only; 0.27% of 290,000 active; yeast membranes, quenched prenylated peptide cleavage fluorescence;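 active means fall in fluorescence gain of 50% or more versus controls, with final raw signal at or below 3038400; inconclusive means same 50% fall but final raw signal above 3038400; inactive means fall in fluorescence gain under 50%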;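 further: plate controls were neutral control wells for no effect and wells lacking membranes for full effect; tested at 10 µM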
Target sequence (Q03530 whole entry, looked up): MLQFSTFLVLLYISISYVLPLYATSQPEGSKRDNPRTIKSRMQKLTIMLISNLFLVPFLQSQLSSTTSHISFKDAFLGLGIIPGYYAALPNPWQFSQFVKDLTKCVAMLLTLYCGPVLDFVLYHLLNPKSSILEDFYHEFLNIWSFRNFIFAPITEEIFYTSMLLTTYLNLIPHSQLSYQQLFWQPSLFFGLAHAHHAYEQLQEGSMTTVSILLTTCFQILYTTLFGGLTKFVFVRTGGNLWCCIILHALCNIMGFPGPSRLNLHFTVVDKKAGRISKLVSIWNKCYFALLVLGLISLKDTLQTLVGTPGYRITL
PABP FP inh: PABP poly(A) RNA binding inhibitors, primary screen, biochemical, fluorescence polarization, uHTS; 1% of 290,000 active; inhibition, % at 35 µM;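 active means 50% or more with normal probe brightness, or confirmed in later tests; inconclusive means above 50% with abnormal brightness, or retests that disagree; inactive means below 50% or failed in later tests; about a fifth of its hits are not listed in these tables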;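 further: calls also rest on retests at 20 µM and on dose response follow-up; controls were probe without protein and protein plus probe with vehicle; some compounds called inactive have numbers as strong as hits; many hits fall short of the cut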
Target sequence (P11940 whole entry, looked up): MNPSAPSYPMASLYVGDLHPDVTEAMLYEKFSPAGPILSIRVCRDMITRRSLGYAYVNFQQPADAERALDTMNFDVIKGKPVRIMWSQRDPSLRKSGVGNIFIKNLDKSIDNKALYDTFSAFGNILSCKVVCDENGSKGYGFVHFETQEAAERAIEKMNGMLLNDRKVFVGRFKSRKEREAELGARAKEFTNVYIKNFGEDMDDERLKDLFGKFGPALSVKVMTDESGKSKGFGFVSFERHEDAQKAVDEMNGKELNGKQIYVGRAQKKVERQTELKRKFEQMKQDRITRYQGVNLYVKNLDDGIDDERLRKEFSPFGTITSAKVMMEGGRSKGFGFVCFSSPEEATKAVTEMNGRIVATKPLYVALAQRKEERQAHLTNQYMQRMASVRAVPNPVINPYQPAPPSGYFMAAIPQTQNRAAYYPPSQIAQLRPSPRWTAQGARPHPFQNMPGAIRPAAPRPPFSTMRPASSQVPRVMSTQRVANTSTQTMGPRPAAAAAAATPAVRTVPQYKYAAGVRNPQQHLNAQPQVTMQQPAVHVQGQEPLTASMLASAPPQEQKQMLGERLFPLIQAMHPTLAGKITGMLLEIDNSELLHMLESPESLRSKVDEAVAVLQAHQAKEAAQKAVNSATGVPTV
MT1-MMP act inh: blockers of MT1-MMP proenzyme processing, primary screen, HT1080 RFP-PRO-GFP cells, GFP/RFP fluorescence; Matrix metalloproteinase-14 (Homo sapiens), P50281; GFP/RFP ratio fluorescence, overnight; percent of plate control window, DMSO zero; GFP/RFP ratio change, % at 20 µM; 0.061% of 360,000 active; AID 651647, 2012;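 active means GFP/RFP ratio change of at least 30% with cell ATP level not reduced by more than half and red fluorescence within 50% of control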; further: strong numbers were not always called active
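Assay system: HT1080 RFP-PRO-GFP cells. Benchmarks: DMSO vehicle wells and RFP-L50D-GFP reporter cell wells. Times: overnight cell settling, then overnight compound exposure, 37 °C, 5% CO2. Compound: 20 µM single dose, 1% DMSO. Read-out basis: GFP/RFP fluorescence ratio.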
eIF4H FP inh retest: second read-out of eIF4H FP inh, no call of its own (marks repeat the call); inhibition, %; compound at 20 µM; confirmation average;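 mean of two retest wells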
PABP FP inh retest: recorded beside PABP FP inh, whose call it bears; inhibition, %; compound at 20 µM; confirmation repeats;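 mean of two retest wells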
MT1-MMP act inh RFP: further read-out of MT1-MMP act inh, marked with its call; RFP signal change, %; measured here: RFP expression control read;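 0 = vehicle wells; hits needed this value within 50% of zero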
* marks the source's active call; other numbers are inactive results; i = inactive; ? = inconclusive; · = not tested or not shown; + = active, no number; & = joins results of further samples.

SMILES | CSC inhib | Env fusion inh | UUG fidelity | eIF4H FP inh | Rce1 inhib | PABP FP inh | MT1-MMP act inh | MT1-MMP act inh RFP | others
COc1ccc(N=NC2C(=O)N(c3ccccc3)N=C2C)cc1 (stereo not given) | 64 | -6 | · | -2 | i | 1 | 6 | 2
COc1ccc(/C(N)=N/OC(=O)c2ccc(Br)o2)cc1 | · | -75 | -48 | -13 | i | -2 | -1 | 2
CCC(=O)N1N=C(c2ccc(C)o2)CC1c1ccc(OC)cc1 (stereo not given) | 5 | 15 | · | -8 | i | -6 | -3 | -1
CCOCc1[nH]c(=S)[nH]c(=O)c1Cc1ccc(OC(C)C)cc1 | -12 | 2 | · | -7 | i | 1 | 5 | 1
COc1cc(C(=O)Nc2nnc(C3CC3)s2)ccc1OCc1c(C)noc1C | 11 | -50 | · | 6 | i | 1 | 6 | 2
Cc1ccc(S(=O)(=O)N2CCC(C(=O)N3CCC3)CC2)cc1 | -12 | -2 | -10 | -11 | i | -1 | 2 | 4
CC(=O)NC(CC(=O)OCC(=O)c1c(N)n(C)c(=O)n(C)c1=O)c1ccccc1 (stereo not given) | -7 | 13 | · | 6 | i | 0 | 3 | 9
Oc1ccc2ccccc2c1N=Nc1ccc(F)cc1 | 9 | -1 | -8 | 86&131 | i | 55&91 | 7 | 0 | eIF4H FP inh retest=-14&42;PABP FP inh retest=2&35
CCc1ccc(S(=O)(=O)c2cn(C)c3cc(OC)c(OC)cc3c2=O)cc1 | -4 | -2 | -6 | 4 | i | 12 | 1 | -3
CC(=O)OCC(=O)[C@@]1(O)CC[C@H]2[C@@H]3CCC4=CC(=O)CC[C@]4(C)[C@H]3[C@@H](O)C[C@@]21C | -8&-3 | i | -5&4 | -6 | i | 8 | -2&1 | 0&3
CCC1CCCCN1S(=O)(=O)c1ccc(C(=O)Nc2nnc(-c3ccccc3Cl)o2)cc1 (stereo not given) | · | · | -21 | 14 | · | 3 | -2 | 2
O=C(O)c1ccc(COc2ccccc2/C=C2\NC(=O)N(Cc3ccc(F)cc3)C2=O)cc1 | -2 | 19 | · | -2 | i | -3 | 2 | 3
COc1ccc(C2C(C(=O)NCc3ccccn3)c3ccccc3C(=O)N2C)cc1OC (stereo not given) | -5 | -79 | -13 | -3 | i | 5 | 4 | 3
O=C(OCCN1CCCCC1)C1(c2ccccc2)CCCC1 | 14 | 10 | · | 6 | i | 8 | -2 | 2
N#Cc1cc([N+](=O)[O-])ccc1NC(=O)COC(=O)C1CCC(=O)N1 (stereo not given) | 6 | -7 | · | · | · | · | -4 | -1
COc1cccc(CNC(=O)CCN2C(=O)[C@@H]3Cc4ccccc4CN3C2=O)c1 | -9 | 5 | -14 | -8 | i | -5 | -2 | 1
c1cncc(-c2nc(NCC3CCCO3)c3ccccc3n2)c1 (stereo not given) | -11 | · | -11 | -1 | i | 2 | 0 | -3
CCOC(=O)C1(CC2CC2)CCN(Cc2cnc(-c3ccc(OC)cc3)nc2)CC1 | -1 | 0 | · | -8 | i | -3 | 1 | -13
COc1ccc(Cl)cc1C(=O)Nc1ccc2c(c1)OCO2 | 16 | -12 | -1 | -9 | + | 9 | -8 | -6
COc1ccc(-c2cc(C)nc(SCc3cccc(C(=O)O)c3)n2)cc1 | -1 | 1 | · | 0 | i | -4 | 0 | 2
Oc1[nH]c2ccc(Br)cc2c1N=NC(=S)N1CCOCC1 | ? | 23 | -27 | 8 | i | 10 | 14 | -17
CC1(C)CC(=O)C2=C(C1)N(c1ccccc1)C(N)=C(C#N)C2c1ccsc1 (stereo not given) | · | · | · | 3 | i | 2 | 0 | 6
c1coc(CSCc2cn3cccnc3n2)c1 | -10 | · | · | 32 | i | 33 | 0 | 6
COc1ccc(-c2c(-c3cc(OC)cc(OC)c3)n(C)c3ccc(-c4cccc5[nH]ccc45)cc23)cc1 | 24 | 15 | -4 | · | · | · | -9 | -3
O=C1NCCOC(=O)[C@H](Cc2ccc(F)cc2)C/C=C\C[C@H]1CC(=O)N(CCO)Cc1ccccc1 | · | 24 | -22 | · | · | · | 2 | -6
CN(CC(=O)Nc1ccc(F)cc1)S(=O)(=O)c1ccc2c(c1)c(=O)n(C)c(=O)n2C | -3 | 8 | -15 | -20 | i | 4 | 5 | 7
COc1ccc(C)cc1N=Nc1ccc(O)c2ncccc12 | · | -17 | · | 25 | i | -2 | 31* | -21*
CCn1cc(C(=O)N2CCCC(C(=O)c3ccc4ccccc4c3)C2)cn1 (stereo not given) | -12 | -6 | -1 | 2 | i | 7 | -7 | 0
COc1ccc(C2C(C#N)=C(N)OC3=C2C(=O)CC(C)C3)c(OC)c1OC (stereo not given) | -3 | -25 | -13 | -8 | i | 2 | 4 | 7
Cc1cc(=O)oc2cc(O[C@@H]3O[C@H](CO)[C@@H](O)[C@H](O)[C@H]3O)ccc12 | 0 | 12 | -23 | -3 | i | 2 | -7 | -1
Cc1sc2ncn(CC(=O)NCCCC(=O)N3CCN(Cc4ccc5c(c4)OCO5)CC3)c(=O)c2c1C | 0 | 16 | -7 | -3 | i | -8 | -1 | -16
O=C(OCC1OC(n2ccc(=O)[nH]c2=O)C(Cl)C1O)c1ccccc1 (stereo not given) | -6 | 1 | -4 | -16 | i | -3 | 3 | 2
CN(CCCn1cnc2c(OCc3ccccc3)ncnc21)Cc1ccco1 | · | 8 | -10 | · | · | · | 0 | 1
O=C(N1CCOCC1)N(Cc1ccccc1)c1ccccn1 | -10 | -9 | -5 | -9 | i | 10 | -1 | 5
Cc1ccc(C(=O)CSc2nccn2-c2ccccc2)cc1 | 17 | · | -17 | -15 | i | -10 | 5 | 6
CCCCNC(=O)C1(C)CCCCN1C(=O)c1ccno1 (stereo not given) | · | 3 | -7 | · | · | · | 0 | 2
CCN1CC2=C(OC(N)=C(C#N)C2c2cccs2)/C(=C\c2cccs2)C1 (stereo not given) | -2 | · | · | 98* | i | 104* | -30 | 8
CC(C)n1c(O)c(N=NC(=O)Cn2ccc(C(F)(F)F)n2)c2ccccc21 | 3 | 3 | -17 | -4 | i | -6 | 1 | 2
c1cncc(CNc2ccc3c(c2)OCO3)c1 | -5 | · | · | 11 | i | 14 | 0 | 4
COC(=O)Cn1c(O)c(N=NC(=O)CNC(=O)c2ccc3c(c2)OCCO3)c2ccccc21 | -24 | -1 | -11 | · | i | · | 1 | 3

Nine structures from above, arranged by molar mass, descending:
SMILES | CSC inhib | Env fusion inh | UUG fidelity | eIF4H FP inh | Rce1 inhib | PABP FP inh | MT1-MMP act inh | MT1-MMP act inh RFP | others
Cc1sc2ncn(CC(=O)NCCCC(=O)N3CCN(Cc4ccc5c(c4)OCO5)CC3)c(=O)c2c1C | 0 | 16 | -7 | -3 | i | -8 | -1 | -16
COc1ccc(-c2c(-c3cc(OC)cc(OC)c3)n(C)c3ccc(-c4cccc5[nH]ccc45)cc23)cc1 | 24 | 15 | -4 | · | · | · | -9 | -3
COC(=O)Cn1c(O)c(N=NC(=O)CNC(=O)c2ccc3c(c2)OCCO3)c2ccccc21 | -24 | -1 | -11 | · | i | · | 1 | 3
CCN1CC2=C(OC(N)=C(C#N)C2c2cccs2)/C(=C\c2cccs2)C1 (stereo not given) | -2 | · | · | 98* | i | 104* | -30 | 8
CC(C)n1c(O)c(N=NC(=O)Cn2ccc(C(F)(F)F)n2)c2ccccc21 | 3 | 3 | -17 | -4 | i | -6 | 1 | 2
Oc1[nH]c2ccc(Br)cc2c1N=NC(=S)N1CCOCC1 | ? | 23 | -27 | 8 | i | 10 | 14 | -17
O=C(OCC1OC(n2ccc(=O)[nH]c2=O)C(Cl)C1O)c1ccccc1 (stereo not given) | -6 | 1 | -4 | -16 | i | -3 | 3 | 2
Cc1cc(=O)oc2cc(O[C@@H]3O[C@H](CO)[C@@H](O)[C@H](O)[C@H]3O)ccc12 | 0 | 12 | -23 | -3 | i | 2 | -7 | -1
CCCCNC(=O)C1(C)CCCCN1C(=O)c1ccno1 (stereo not given) | · | 3 | -7 | · | · | · | 0 | 2

(further entries)
SMILES | CSC inhib | Env fusion inh | UUG fidelity | eIF4H FP inh | Rce1 inhib | PABP FP inh | MT1-MMP act inh | MT1-MMP act inh RFP | others
COc1cccc(COCCN2CCN(S(=O)(=O)c3ccc(C)cc3)CCC2=O)c1 | -15 | · | 8 | 1 | i | 14 | 6 | -6
CC(=O)Nc1cc(-c2ccc(N(C)C)cc2)cn2c(-c3ccc(F)cc3)cnc12 | · | -19 | 2 | · | · | · | -71 | -1
Cc1ccc(NC(=O)NCCCN2CCOCC2)cc1 | -13 | · | -22 | -4 | i | -12 | 1 | 6
Cn1c(=O)c2sccc2n2c(CCCC(=O)N3CCN(c4ccccn4)CC3)nnc12 | 1 | -1 | -2 | -12 | i | 11 | -4 | 0
COc1ccc(S(=O)(=O)NCC(=O)NCc2cc(=O)n(C)c(=O)n2C)cc1F | -7 | 4 | -13 | 89 | i | -9 | -1 | 3 | eIF4H FP inh retest=-10;PABP FP inh retest=10
COc1cc(OC)nc(NC(=O)CN2CCN(c3ccc(F)cc3)CC2)n1 | 4 | · | -21 | -12 | i | -10 | 8 | 1
CC1Cn2c(nnc2-c2cc3ccccc3cc2O)S1 (stereo not given) | -1 | · | -20 | -13 | i | -10 | 7 | 3
COc1cc(C)c(/C=C(\C#N)C(=O)Nc2cccc(C)c2)cc1C(C)C | 13 | · | · | -7 | i | -9 | -4 | -6
Cc1cc(=O)c(C(=O)O)cn1-c1ccc(C(C)C)cc1 | -8 | 3 | -7 | -2 | i | 30 | -4 | -2
Cc1cc(O)c(-c2cc(C(=O)NCc3ccc4c(c3)OCO4)[nH]n2)cc1C | -3 | -21 | -14 | 7 | i | -2 | 5 | 0
Cc1ccc(Cc2c(-c3ccc(Cl)cc3)nc3cc(C)c(Br)c(C)n23)cc1 | · | -2 | -19 | · | · | · | 3 | 1
CCOC(=O)c1c(NC(=O)CSc2n[nH]c(-c3ccco3)n2)sc(C)c1C | -2 | -9 | -17 | 12 | i | 4 | -6 | 0
CCc1ccccc1S(=O)(=O)Cc1ccc(C(=O)NC(C)C)o1 | 6 | -30 | 0 | · | i | · | -1 | 5
Cc1ccc(N2CCN(c3ccc(C)cc3)C2c2ccncc2)cc1 | -8 | · | -14 | -6 | i | -2 | 1 | -3
COc1ccc(/C([O-])=C(/C(=S)Nc2ccc(C)c(C)c2)n2c[n+](C)c3ccccc32)cc1OC | -6 | -2 | · | -6 | · | -6 | 0 | 2
COc1cc(C)nc(NS(=O)(=O)c2ccccc2Cl)n1 | -18 | 0 | 10 | -14 | i | 5 | 1 | 4
CNCc1cc(Cl)cc(OC)c1OC(C)C | · | -4 | · | -5 | i | 9 | -5 | 1
Cc1ccc(C(=O)CSc2nnc(-c3ccco3)o2)o1 | -7 | -12 | -17 | -3 | i | -8 | 0 | 0
